B2AR ag: beta2AR agonists driving receptor internalization, primary screen, cell-based, FAP fluorogen, flow cytometry; Beta-2 adrenergic receptor (Homo sapiens), P07550; Am2.2-beta2AR cells; reference of the scale not given here; response, % (test concentration not listed); 0.43% of 340,000 active;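 active means response above a set limit, near 3 SD of response in nonfluorescent compounds, cut at about 42% in these data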;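 further: stock transfer was 100 nL into about 11 µL; a reference agonist was the positive control; negative values mostly stem from fluorescent compounds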
Target sequence (P07550 whole entry, looked up): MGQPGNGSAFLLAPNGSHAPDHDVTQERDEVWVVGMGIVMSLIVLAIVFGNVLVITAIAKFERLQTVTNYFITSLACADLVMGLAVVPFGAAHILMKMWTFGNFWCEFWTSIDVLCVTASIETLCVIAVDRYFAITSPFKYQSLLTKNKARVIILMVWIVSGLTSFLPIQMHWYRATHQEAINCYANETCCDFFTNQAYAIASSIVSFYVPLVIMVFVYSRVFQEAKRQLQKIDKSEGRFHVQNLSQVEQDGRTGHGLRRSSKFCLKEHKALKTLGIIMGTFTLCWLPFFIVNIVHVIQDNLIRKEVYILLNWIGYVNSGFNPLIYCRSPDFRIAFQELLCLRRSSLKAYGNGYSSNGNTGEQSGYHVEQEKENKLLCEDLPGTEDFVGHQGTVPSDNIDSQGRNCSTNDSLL
LANA-H2B inh: blockers of LANA interaction with H2A/H2B – biochemical, FP readout, HTS, primary screen | inhibition, % (test concentration not listed) | cell-free LANA-H2A/H2B peptide, fluorescence polarization | 0.6% of 320,000 active; in the data active means inhibition mostly above about 10%, no sharp cut-off; inactive means mostly below about 6.7%;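 further: stock transfer was 7.5 nL into about 10 µL; 0% = median of vehicle wells and 100% = median of positive control wells; one replicate is shown; the record names a cut of 25% in any replicate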
A1 inh: caspase 3/7 activation in MEF A1-2A-BIM cells, primary screen, A1 inhibitor project, cell-based, luminescence, HTS. AID 2462, 2010. Caspase-Glo 3/7 luminescence, 3 h; percent of clofoctol response, vehicle zero. 0.066% of 330,000 active. caspase activation, % (no concentration beside the values);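 active means over half of replicate activation scores above 10%, or exactly half above 10 with the replicate mean above 10; inconclusive means replicate mean below 10 yet half the replicates above 10; inactive means over half of replicates below 10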;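 further: wells of about 30 µL received 50 nL stock; many hits fall short of the cut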
Beta apoptosis: inhibitors of cytokine-induced beta cell apoptosis, primary screen, luminescence. INS-1E cytokine-induced death, ATP luminescence, 48 h; percent of positive-control rescue, neutral wells zero. 0.8% of 300,000 active. protection from apoptosis, % (concentration not given with the values);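 active means all replicates at 75% or more, or half of them and the mean; inconclusive means half reach 75% but not the mean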;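 further: 0% = cytokine-treated negative control wells and 100% = positive control rescue; higher means more ATP so stronger rescue from cytokine killing; wells of about 40 µL received 100 nL stock; the first replicate is given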
UCH37 inh: inhibitors of human UCH37 deubiquitinase, primary screen, biochemical, Ub-AMC cleavage, fluorescence; Ubiquitin carboxyl-terminal hydrolase isozyme L5 (Homo sapiens), Q9Y5K5; purified proteasome/UCH37; inhibition, % (test concentration not listed); 0.33% of 330,000 active; AID 588478, 2011;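 active means mean of two replicates above 20%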;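 further: 0% = compound-free wells with enzyme and 100% = wells lacking proteasome; stock transfer was 100 nL into about 20 µL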
Target sequence (Q9Y5K5 whole entry, looked up): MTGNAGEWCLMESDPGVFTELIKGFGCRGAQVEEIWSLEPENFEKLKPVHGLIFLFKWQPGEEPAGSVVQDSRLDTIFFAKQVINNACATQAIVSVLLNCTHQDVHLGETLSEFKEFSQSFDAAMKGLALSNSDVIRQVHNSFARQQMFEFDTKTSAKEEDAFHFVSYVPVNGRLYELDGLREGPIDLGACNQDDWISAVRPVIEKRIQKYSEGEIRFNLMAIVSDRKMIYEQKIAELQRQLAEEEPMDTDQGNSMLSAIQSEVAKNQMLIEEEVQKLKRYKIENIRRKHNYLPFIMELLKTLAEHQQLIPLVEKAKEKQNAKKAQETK
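Assay system: Proteasome-bound UCH37. Buffer or medium: pH 7.4 Tris-HCl (50 mM) with ovalbumin, ATP-MgCl2, DTT. Incubation: 30 min preincubation with enzyme, 25 min cleavage at room temperature. Measured by: fluorescence, ex 355 nm, em 460 nm. Read-out basis: percent inhibition. Control set: wells without proteasome as full block, compound-free enzyme plus substrate as uninhibited.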
T cruzi repl: inhibitors of intracellular T. cruzi growth, primary screen, luminescence, NIH3T3 host cells. inhibition, % (test concentration not listed). 1.4% of 300,000 active. T. cruzi beta-gal in NIH3T3, 90 h;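 active means mean inhibition across valid replicates above about 55%, limit read from the data; inconclusive means mean below that limit but half or more replicates reach it; inactive means mean below it, under half of replicates reach it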;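 further: signal also drops with host cell toxicity which is not excluded here; 0% = plate median of DMSO wells and 100% = zero luminescence signal; higher percent means less beta-gal luminescence so fewer parasites; stock transfer was 50 nL into about 50 µL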
RanGTP-Impb inh: inhibitors of RanGTP-importin-beta interaction, primary screen, biochemical, FRET, CFP-Ran, YFP-importin-beta, homogeneous; cell-free CFP-Ran/YFP-importin-beta FRET ratio; inhibition, % (test concentration not listed); 1.1% of 300,000 active; AID 2216, 2009;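 active means most replicates above 15%; inconclusive means exactly half above 15%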;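 further: 0% = DMSO wells and 100% = Ran loaded with GDP instead of GTP; wells of about 40 µL received 100 nL stock; the first replicate is given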
Calb FLC: C. albicans growth inhibition with fluconazole, primary screen, CaCi-2 strain, Alamar Blue fluorescence; C. albicans CaCi-2 (fluconazole-resistant clinical isolate) + fluconazole, 48 h; 0.57% of 300,000 active; growth inhibition, % (concentration not given with the values);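 active means most replicates above 75%; inconclusive means exactly half above 75%; inactive means most below 75%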;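 further: all wells also contain fluconazole at 8 µg/ml as a sub-toxic cotreatment; 0% = median of DMSO wells and 100% = median of geldanamycin control wells; wells of about 8 µL received 7.5 nL stock; the first replicate is given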
Active calls of the source: *; ? = inconclusive; · = not tested or not shown.

SMILES	B2AR ag	LANA-H2B inh	A1 inh	Beta apoptosis	UCH37 inh	T cruzi repl	RanGTP-Impb inh	Calb FLC
COc1cc(CN2CCCC(C(=O)c3ccc(SC)cc3)C2)cc(Cl)c1O (stereo not given)	1	-3.9	0.1	7	3.9	24	-1.1	-5
NC(=O)COC(=O)CC(c1ccccc1)c1ccccc1	7	0.5	0.7	-10	2.9	-5	3.3	4
CN(C)c1ccc(S(=O)(=O)NCC(=O)OCC(=O)Nc2cccc(Cl)c2)cc1[N+](=O)[O-]	-8	-0.3	0.2	-4	2.4	-12	0.3	-4
Cc1ccc(C(CC(N)=O)c2ccco2)cc1 (stereo not given)	-2	-3.4	0.5	-14	-2.3	-5	0.2	5
COc1ccc(-c2cc(C)no2)cc1S(=O)(=O)NCC(C)c1ccccc1 (stereo not given)	-18	-0.7	0.8	-5	3.0	2	?	1
CCCCSCCCNC(=O)CCCN1C(=O)c2ccccc2Sc2ncccc21	-4	-4.0	0.0	5	0.3	-2	0.2	-6
CN(Cc1ccon1)C(=O)c1ccc2nc(Cc3cccc(Cl)c3)oc2c1	5	-2.8	0.8	4	4.3	2	8.9	9
COc1cc2c(cc1NC(=O)c1cccc(F)c1)CCCC2	19	3.4	0.4	-3	3.8	13	0.0	3
O=C(COC(=O)Cc1ccc([N+](=O)[O-])cc1)NCc1ccc2c(c1)OCO2	-3	-6.8	0.5	-2	-0.1	·	·	·
CCC(Sc1nnc2c3ccccc3n(CC)c2n1)C(=O)Nc1sc2c(c1C#N)CCCC2 (stereo not given)	-7	2.2	-1.7	5	2.0	-1	-2.4	-4
CCN(CC)c1ccc(/C=N/OCC(=O)Nc2cccc(C)c2)cc1	18	-3.9	0.3	0	·	-32	-1.8	-25
CCN1CCN(Cc2c(O)ccc3c2O/C(=C\c2ccccc2)C3=O)CC1	-4	2.3	0.7	2	-80	2	-1.7	-13
O=C(O)CCSc1nnc(CNc2ccc(Cl)cc2)n1Cc1ccccc1	-5	·	1.3	-6	0.3	-2	1.7	-7
Cc1cc(C)cc(N(CC(=O)NC(C)(C)C)C(=O)CCC(=O)Nc2ccccn2)c1	-5	-0.4	0.6	-2	1.6	6	2.9	-11
COc1ccc(S(=O)(=O)N2CCC(C(=O)NC(C)CCc3ccccc3)CC2)cc1 (stereo not given)	8	5.0	-0.2	2	-1.0	0	-4.2	5
N#Cc1ccc(CN2CCN(C(=O)c3ccccc3)CC2)c(Cl)c1	0	-5.6	1.9	-1	7.2	-7	-0.8	8
Cc1ccc(S(=O)(=O)/N=C2/NC(=O)/C(=C/c3ccccc3)S2)cc1	5	1.8	-0.1	-3	8.8	-14	-0.3	-11
COc1ccc(C(=O)NCCNC(=O)c2cnccn2)cc1	-3	3.2	0.6	-1	1.0	0	-1.6	3
COc1ccc2c(C)cc(SCC(=O)NCCN3C(=O)CSC3=O)nc2c1	-4	-2.4	0.6	·	-4.7	2	-0.8	1
CCOC(=O)C1C(c2ccc(Cl)cc2)NC(=S)NC1(O)C(F)(F)F (stereo not given)	2	7.8	-0.1	-1	1.0	4	0.7	8
CCOC(=O)Cc1csc(NC(=O)c2c(-c3c(F)cccc3Cl)noc2C)n1	8	5.4	-0.4	-6	0.4	15	2.0	3
O=C1C2CC=CCC2C(=O)N1c1n[nH]c(-c2ccccc2)n1 (stereo not given)	0	-2.1	-0.7	-4	1.9	-8	0.0	-8
Cc1ccc(C(=O)N2CCN(c3ccc(N4CCOCC4)nn3)CC2)cc1C	-3	0.5	-0.2	·	-287	12	7.7	3
CCS(=O)(=O)Nc1ccc(C2=NN(C(=O)c3ccco3)C(c3ccc(Cl)o3)C2)cc1 (stereo not given)	-6	5.4	0.4	4	-56	·	·	·
Cc1ccc(NC(=S)N(CCN(C)C)Cc2cccs2)c(C)c1	0	-2.5	0.3	-9	2.1	-3	-0.7	-7

Later entries.
SMILES	B2AR ag	LANA-H2B inh	A1 inh	Beta apoptosis	UCH37 inh	T cruzi repl	RanGTP-Impb inh	Calb FLC
COc1ccc(NCc2n[nH]c(=O)c3ccccc23)cc1	0	-4.4	0.1	-2	3.4	-10	7.1	-1
C=CCOc1ccc(/C=N/NC(=O)CN2CCCCC2)cc1OC	-2	2.6	-0.2	-11	·	-10	-4.5	2
CCOc1nc2cnccc2n(CC(=O)Nc2c(C)cccc2CC)c1=O	-2	-1.6	-0.2	-5	3.4	-15	0.6	-19
COc1cccc(C(=O)NCCS(=O)(=O)N(C)C2CCCCC2)c1	-4	-3.0	0.3	-5	·	-4	0.5	-4
Cc1ccc(C(=O)N2CCCCC2)cc1S(=O)(=O)N1CCCC1	-9	-1.9	0.2	1	-1.8	-7	4.5	-2
CCCc1cc(N2CCC(C(N)=O)CC2)nc(-c2ccccc2)n1	-22	-6.1	0.2	-2	1.6	-1	2.6	13
COC(=O)[C@@H]1[C@@H](C)N(Cc2ccccc2)C(=O)N[C@H]1c1cccc(C(F)(F)F)c1	2	6.4	-0.3	5	-0.7	-19	2.1	-1
CC(=O)c1ccc(S(=O)(=O)N2CCN(C(=O)CSC(=S)N3CCCC3)CC2)cc1	-4	·	-1.1	1	-0.1	-6	1.9	0
CS(=O)(=O)N1N=C(c2cccs2)CC1c1ccco1 (stereo not given)	2	2.5	0.6	-6	-3.0	-7	2.1	11
Cc1ccccc1NC(=O)c1cc(S(=O)(=O)c2ccccc2)ccc1Cl	0	1.8	0.2	-1	0.8	16	-2.0	1
C/C(=N\NC(=O)CNC(=O)C1COc2ccccc2O1)c1ccco1 (stereo not given)	-20	1.2	-0.4	-3	·	-5	-1.8	-17
C/C(=C\c1ccccc1)C(=O)NCCCn1ccnc1	-3	2.0	-0.1	6	6.8	-23	-1.2	22
CCOC(=O)C1CCN(C(=O)CN2C(=O)c3ccccc3Sc3ncccc32)CC1	7	-0.8	-0.6	-2	4.4	-19	-1.9	3
CNC(=S)Nc1cccc(-c2cnc3ccccc3n2)c1	0	4.5	-1.6	-8	8.1	10	-3.5	15
COc1ccc(-n2nnnc2S(=O)(=O)Cc2ccc(C(=O)O)cc2)cc1	-2	-3.5	0.6	-28	1.1	-12	2.2	-15
O=C(Cn1cc([N+](=O)[O-])cn1)N1N=C(C(F)F)CC1(O)C(F)F (stereo not given)	4	-4.0	1.4	-15	3.4	-7	-0.6	-28
CC(C)(C)c1cccc(P(=O)(c2ccccc2)c2ccccc2)c1O	0	0.8	-0.2	-3	0.4	8	0.9	2
CCc1nc(SCc2ccc([N+](=O)[O-])cc2)n[nH]1	0	1.5	-0.2	-11	2.2	-7	-5.1	-14
C=CCOc1ccc2c(c1)c(=O)cc(C(=O)O)n2CC	12	-12	-0.7	-7	-26	-12	-2.0	-9
COc1cc(NC(=O)C2CCCO2)c(OC)cc1Cl (stereo not given)	3	-0.6	0.7	-3	6.3	-8	5.5	20
N/C(=N\OC(=O)COc1ccc(Cl)cc1)c1cccnc1	0	·	-0.6	-4	3.1	-2	0.3	9
COc1ccccc1NS(=O)(=O)c1cccc(NC(=O)Nc2ccccc2)c1	12	3.0	0.2	2	-1.4	13	?	-9
O=C(CNC1CCCC1)Nc1ccc(S(=O)(=O)N2CCCCC2)cc1	14	9.9	0.0	1	-0.5	10	6.1	-4
CC(C)CNC(=O)COC(=O)c1ccccc1SCC(=O)NCC(C)C	-2	0.0	0.6	·	1.8	-2	-1.6	-1
CCCN1CCC(=O)N([C@H](CN=[N+]=[N-])CC(C)C)CC1	-4	-0.7	1.3	-13	-2.6	21	1.8	-16

(next part)
SMILES	B2AR ag	LANA-H2B inh	A1 inh	Beta apoptosis	UCH37 inh	T cruzi repl	RanGTP-Impb inh	Calb FLC
Cc1nc2ccc(S(=O)(=O)NCC(=O)NCCc3ccc(Cl)cc3)cc2s1	4	13	1.4	-7	3.2	4	0.6	-8
O=C(CSCc1ccco1)NC1CCCC1	-4	4.2	-0.5	-18	·	-16	5.7	-4
C=CCOC(=O)c1sc(NC(=O)c2ccc(OC)cc2)nc1C	-6	0.9	-6.7	5	1.4	-21	-0.9	5
O=c1[nH]nc(C(F)(F)F)c2nnn(Cc3ccccc3Cl)c12	9	-0.7	-0.4	-7	5.6	-14	-0.2	-3
CC(C)(C)n1nc(-c2ccc(Cl)cc2)c2c(N)ncnc21	-19	4.7	-0.7	-24	-1.7	48	?	-6
CC1CCCCN1C(=O)c1ccc(Br)o1 (stereo not given)	-9	6.1	0.5	-8	-0.2	-9	·	·
O=C(CN1CCCCC1)Nc1ccccc1	6	-1.2	-0.5	·	5.4	-14	-1.9	-8
CCOC(=O)c1sc(NC(=O)CC)c(C#N)c1C	-25	1.3	-1.3	-4	2.0	8	-3.8	3
Cc1nnc(SCc2ccccc2)n1CC1CCCO1 (stereo not given)	0	-3.7	1.2	·	0.8	-4	3.0	-7
CNNC(=O)C(=O)NNS(=O)(=O)c1ccccc1	1	3.1	1.0	-3	2.8	7	4.9	-15
COc1ccc(/C=N/NC(=O)C(C)n2nnc3ccccc32)cc1OC (stereo not given)	1	-0.6	0.3	4	·	-18	-1.6	1
CCNC(=S)NNC(=O)c1ccc(OC(F)F)cc1	-6	2.0	0.3	-2	1.5	-14	1.0	11
Cc1c(C2(O)C(=O)Nc3ccc(F)cc32)c(=O)n(-c2ccccc2)n1C (stereo not given)	2	2.2	0.5	-7	4.2	-2	-2.7	3
O=C(Cc1n[nH]c(=O)c2ccccc12)Nc1cccc(S(=O)(=O)N2CCCC2)c1	0	-0.6	-0.4	-2	1.7	2	-3.2	-6
CCN(CC)CC(=O)NC1CCCc2c1cnn2-c1cc(F)cc(F)c1 (stereo not given)	4	-2.9	-0.4	-2	·	6	2.1	4

Seven of these compounds, reformatted:
Below each compound: B2AR ag, LANA-H2B inh, A1 inh, Beta apoptosis, UCH37 inh, T cruzi repl, RanGTP-Impb inh, Calb FLC
> CC(C)(C)n1nc(-c2ccc(Cl)cc2)c2c(N)ncnc21
 : -19, 4.7, -0.7, -24, -1.7, 48, ?, -6
> CC1CCCCN1C(=O)c1ccc(Br)o1 (stereo not given)
 : -9, 6.1, 0.5, -8, -0.2, -9, ·, ·
> O=C(CN1CCCCC1)Nc1ccccc1
 : 6, -1.2, -0.5, ·, 5.4, -14, -1.9, -8
> CCOC(=O)c1sc(NC(=O)CC)c(C#N)c1C
 : -25, 1.3, -1.3, -4, 2.0, 8, -3.8, 3
> Cc1nnc(SCc2ccccc2)n1CC1CCCO1 (stereo not given)
 : 0, -3.7, 1.2, ·, 0.8, -4, 3.0, -7
> CNNC(=O)C(=O)NNS(=O)(=O)c1ccccc1
 : 1, 3.1, 1.0, -3, 2.8, 7, 4.9, -15
> COc1ccc(/C=N/NC(=O)C(C)n2nnc3ccccc32)cc1OC (stereo not given)
 : 1, -0.6, 0.3, 4, ·, -18, -1.6, 1

Source: PubChem BioAssay (several laboratories)
